HIV Env fusion = blocks HIV Env-driven cell-cell fusion; HeLa-JRFL Env/CEM21 cell fusion, luciferase; inhibition, % at 12.3 µM; hit rate 1.1% among 360,000;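 active means mean replicate inhibition score of at least 50 and every replicate individually at or above 50; inconclusive means only one of the two criteria met; inactive means mean below 50 and not all replicates reaching 50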;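 further: 0% = plate neutral controls and 100% = maraviroc near 300 nM; one replicate is shown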
Rce1 inhib = yeast Ras-converting enzyme inhibition | yeast membranes, quenched prenylated peptide cleavage fluorescence | calls only | hit rate 0.27% among 290,000;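 active means fall in fluorescence gain of 50% or more versus controls, with final raw signal at or below 3038400; inconclusive means same 50% fall but final raw signal above 3038400; inactive means fall in fluorescence gain under 50%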;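 further: plate controls were neutral control wells for no effect and wells lacking membranes for full effect; tested at 10 µM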
CSC inhib = blocks cancer stem cells; cancer stem cell-like cells viability, luminescence; inhibition, % at 7.5 µM; hit rate 1.1% among 300,000; AID 2717;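 active means mean at 75% or more and at least half the replicates too; inconclusive means mean and replicates disagree; tested in HMLE shEcad cells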;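 further: 0% = median of negative and 100% = median of positive control wells; the first replicate is given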
PABP FP inh = PABP-poly(A) binding inhibition | P11940 | PABP-poly(A) RNA binding, fluorescence polarization | inhibition, % at 35 µM | hit rate 1% among 290,000 | AID 2014;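 active means 50% or more with normal probe brightness, or confirmed in later tests; inconclusive means above 50% with abnormal brightness, or retests that disagree; inactive means below 50% or failed in later tests; about a fifth of its hits are not listed in these tables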;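 further: calls also rest on retests at 20 µM and on dose response follow-up; controls were probe without protein and protein plus probe with vehicle; some compounds called inactive have numbers as strong as hits; many hits fall short of the cut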
Target sequence (P11940 whole entry, looked up): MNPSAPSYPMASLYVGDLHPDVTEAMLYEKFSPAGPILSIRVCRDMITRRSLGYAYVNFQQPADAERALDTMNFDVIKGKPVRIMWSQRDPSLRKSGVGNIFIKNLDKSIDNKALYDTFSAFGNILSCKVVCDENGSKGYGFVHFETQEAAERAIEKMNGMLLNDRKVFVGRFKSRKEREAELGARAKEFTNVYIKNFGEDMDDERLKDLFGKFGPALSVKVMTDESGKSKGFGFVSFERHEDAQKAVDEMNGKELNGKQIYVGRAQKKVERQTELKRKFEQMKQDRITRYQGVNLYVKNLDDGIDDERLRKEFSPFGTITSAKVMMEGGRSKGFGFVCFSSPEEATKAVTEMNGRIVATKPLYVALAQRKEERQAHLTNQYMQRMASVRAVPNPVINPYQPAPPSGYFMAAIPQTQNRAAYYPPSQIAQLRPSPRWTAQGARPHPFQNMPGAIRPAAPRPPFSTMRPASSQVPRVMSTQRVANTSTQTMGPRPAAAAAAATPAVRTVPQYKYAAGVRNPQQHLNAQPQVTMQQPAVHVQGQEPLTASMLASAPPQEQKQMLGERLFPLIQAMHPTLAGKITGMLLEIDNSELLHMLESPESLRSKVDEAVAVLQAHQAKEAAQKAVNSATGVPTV
MT1-MMP act inh = blocks activation of human MT1-MMP; HT1080 RFP-PRO-GFP cells, GFP/RFP ratio fluorescence, overnight; percent of plate control window, DMSO zero; GFP/RFP ratio change, % at 20 µM; hit rate 0.061% among 360,000;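 active means GFP/RFP ratio change of at least 30% with cell ATP level not reduced by more than half and red fluorescence within 50% of control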; further: strong numbers were not always called active
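Assay system: HT1080 RFP-PRO-GFP cells | Dosing: 20 µM single dose, 1% DMSO | Incubation: Cells overnight before dosing, compound overnight, 37 °C, 5% CO2 | Evaluation: GFP/RFP fluorescence ratio | Control set: DMSO-only wells and HT1080 RFP-L50D-GFP cell wells as references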
Yeast UUG start = yeast start codon fidelity modulation | activity score, % at 18.7 µM | S. cerevisiae UUG-firefly luciferase reporter, luminescence/redox ratio | hit rate 0.13% among 350,000;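 active means replicate mean at a twofold rise or more, about +100% in these data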;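 further: firefly luciferase made from a UUG start codon reports start codon fidelity; reporter light over untreated wells divided by growth signal over untreated wells; some hits fall short of that in this replicate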
eIF4H inh = inhibitors of RNA binding by human eIF4H; Q15056; eIF4H fluorescence polarization binding assay; inhibition, % at 35 µM; hit rate 0.94% among 290,000; AID 2012;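 active means 50% or more with normal probe brightness, or confirmed in later tests; inconclusive means above 50% with abnormal brightness, or retests that disagree; inactive means below 50% or failed in later tests; about a fifth of its hits are not listed in these tables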;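 further: calls also rest on retests at 20 µM and on dose response follow-up; 0% = protein and probe with vehicle and 100% = probe without protein; strong numbers were not always called active; many hits fall short of the cut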
eIF4H inh retest = recorded beside eIF4H inh, whose call it bears; inhibition, %; compound at 20 µM; confirmation average;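 mean of two retest wells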
PABP FP inh retest = recorded beside PABP FP inh, whose call it bears; inhibition, %; compound at 20 µM; confirmation repeats;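 mean of two retest wells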
MT1-MMP act inh RFP = also measured in MT1-MMP act inh; calls as there; RFP signal change, %; measured here: RFP expression control read;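 0 = vehicle wells; hits needed this value within 50% of zero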
Starred values were filed as active, the others as inactive; i = inactive; ? = inconclusive; · = no result given; & = joins results of further samples; [ ] = dose if it differs, or a comment. No enrichment for hits. About 3% of those tested had a hit in this group.

SMILES | HIV Env fusion | Rce1 inhib | CSC inhib | PABP FP inh | MT1-MMP act inh | MT1-MMP act inh RFP | Yeast UUG start | eIF4H inh | others
O=C(Nc1ccc(Br)c2ccccc12)c1ccc2ccccc2c1O | ? | i | 108* | 12 | -19 | -38 | -18 | -2
COc1ccc(-c2nc(CS(=O)(=O)CC(=O)NCc3cccc(F)c3)c(C)o2)cc1 | 9 | i | -11 | 8 | 6 | 0 | -21 | 21
Cc1cc(C)cc(Nc2ccc([N+](=O)[O-])nc2[N+](=O)[O-])c1 | -40 | i | -3 | 10 | 3 | -5 | -9 | -4
COc1ccccc1-n1c(=S)[nH]c2c(sc(=S)n2-c2ccc(C)cc2C)c1=O | · | i | · | 1 | -7 | -2 | · | 2
C=CCc1cc(/C=C2/NC(=S)NC2=O)cc(OC)c1O | · | i | -1 | -16 | -34 | 7 | · | -16
O=C(CCNS(=O)(=O)c1ccc(OC(F)(F)F)cc1)NCCc1c[nH]c2ccccc12 | 21 | · | 13 | · | 6 | -2 | -3 | ·
O=C(CN1C(=O)c2ccccc2S1(=O)=O)Nc1ccccc1 | · | i | -9 | -8 | 4 | 3 | 3 | -16
O=C(Nc1ccc2[nH]ncc2c1)c1ccccc1Cl | -185 | i | -2 | 3 | -5 | -3 | -63 | -2
Oc1cccc2ccc(Nc3ccccn3)nc12 | 60* | i | 104* | -9 | -46 | -32 | -41 | 8
CCN(CC)c1nc(C)nc2c1sc(=S)n2C | 10 | i | 12 | 55 | -4 | -2 | · | -2 | eIF4H inh retest=-9;PABP FP inh retest=5
CC[C@]1(c2ccccc2C)ON(c2ccccc2C(F)(F)F)C1=O | -8 | · | 18 | · | 9 | 3 | 6 | ·
COc1ccccc1CC(=O)Nc1cc(C)on1 | 10 | · | · | · | 3 | 6 | -6 | ·
CC(C)c1ccc(CNC(=O)C(=O)NCC2CCCO2)cc1 (stereo not drawn) | 19 | i | 3 | -8 | 2 | 9 | · | -6
NC(=O)c1ccc(NC(=O)CSc2nnc(-c3ccncc3)n2Cc2ccco2)cc1 | 5 | i | -4 | 21 | -5 | -4 | -13 | 31
Cc1ccc(NC(=O)c2ccc(NCCCN3CCC(C)CC3)c([N+](=O)[O-])c2)cc1F | -14 | i | -1 | 2 | 3 | 2 | · | 40
Cc1ccc(S(=O)(=O)N2CCN(C(=O)N(c3ccccc3)c3ccccc3)CC2)cc1 | 25 | i | -4 | 2 | -7 | -2 | -11 | -9
Cn1c(=O)c2c(O)cc(=O)[nH]c2n(-c2ccccc2)c1=O | · | i | -1 | -12 | 4 | 5 | 30 | -5
O=C1CCC(=O)N1CN(Cc1ccco1)CN1C(=O)CCC1=O | -32 | · | · | 1 | -5 | -2 | -12 | 5
CCOC(=O)c1sc(N2C(=O)C(O)=C(C(=O)c3ccc(C)o3)C2c2cccc([N+](=O)[O-])c2)nc1C (stereo not drawn) | -24 | i | 43 | -2 | 2 | -2 | 5 | -3
O=C(NC(NCC1CCCO1)C(Cl)(Cl)Cl)c1cccc2ccccc12 (stereo not drawn) | -98 | i | 11 | -1 | -2 | -1 | · | -6
O=C(CCc1nnc(Cc2ccc(-c3ccccc3)cc2)o1)NCCc1ccccn1 | -2 | i | 4 | -9 | 7 | 2 | · | -1
Cc1ccn2c(=O)nc(SCC(=O)N3CCCc4ccccc43)nc2c1 | -32 | i | 5 | · | -3 | -1 | · | ·
COc1ccc(OCCNc2c([N+](=O)[O-])c(=O)oc3ccccc23)cc1 | 9 | i | -10 | -11 | 0 | -5 | · | 2
CC1=C(C(=O)N(C)C)CC(CC(=O)NCCCN(C)C)C(=O)N1Cc1ccc(F)cc1 (stereo not drawn) | -7 | · | · | · | 0 | 2 | -9 | ·
Cc1ccc(Nc2ccc([N+](=O)[O-])ccc2=O)cc1 | -5 | i | · | · | -3 | -5 | · | ·
Cc1cc(C)c(NC(=O)CN2C(=O)NC3(CCCc4ccccc43)C2=O)c(Cl)c1 (stereo not drawn) | 1 | i | · | · | 1 | -2 | · | ·
Cc1ccsc1C1C(C#N)=C(N)OC2=C1C(=O)CC(C)(C)C2 (stereo not drawn) | 9 | i | -15 | 7 | -8 | 1 | -18 | 2
O=C1NC(SCCCF)=N/C1=C/c1ccc(-n2cncn2)cc1 | 0 | i | -7 | -6 | -8 | -1 | · | -1
CCOc1ccc(-n2ccnc(SCC(=O)NCCc3ccccc3)c2=O)cc1 | · | i | 5 | · | 7 | -4 | 9 | ·
OCC1(Cc2ccccc2)CCN(Cc2cc3ccccc3o2)CC1 | 37 | i | 15 | -1 | 0 | -2 | -13 | -11
CCC(=O)NC(NC(=S)Nc1cccc2cccnc12)C(Cl)(Cl)Cl (stereo not drawn) | · | i | -5 | -6 | 1 | 2 | · | 12
CS(=O)(=O)c1ccccc1C(=O)N(CCC1=CCCCC1)c1c(N)n(Cc2ccccc2)c(=O)[nH]c1=O | · | i | -7 | · | -11 | -7 | 5 | ·
COc1ccc(/C=C/C(=O)OCC(=O)Nc2ccc3[nH]c(=O)[nH]c3c2)cc1OC | -21 | i | -5 | · | -3 | 0 | · | ·
Cc1ccc(C(=O)NC(=S)Nc2ccc3[nH]c(=O)[nH]c3c2)c(C)c1 | 5 | i | -19 | 3 | -1 | 0 | · | -3
Cc1ccc(NC2=C(Cl)C(=O)OC2OC(C)C)c(C)c1 (stereo not drawn) | · | i | -6 | 8 | -4 | -3 | · | -1
NS(=O)(=O)c1cccc(NC(=O)COC(=O)C2CCCCC2)c1 | -14 | i | 15 | -7 | 1 | 1 | 6 | -6
COc1cc2c(c(OCC(=O)NC(C)C)c1)C(=O)O[C@@H](C)CCCC(=O)CCCCC2 | 88* | i | -12 | 30 | -6 | -3 | -22 | 70 | eIF4H inh retest=14;PABP FP inh retest=29
O=C(C1=C[C@H](c2csc3ccccc23)C[C@H](OCCCCO)O1)N1CCOCC1 | 18[16.7 µM] | i | 9 | 3 | 1 | 3 | 19&6 | -3
CC(C)[N+](C)(CCOC(=O)C1c2ccccc2Oc2ccccc21)C(C)C | 24 | i | -13 | -6 | 4 | 8 | -20 | -6
O=C(CCCCCNc1nc(=S)[nH]c2ccccc12)NCCC1=CCCCC1 | 7 | i | -10 | -5 | 3 | -1 | -15 | -5
O=C1Nc2ccc(Br)cc2C12NNc1ccccc1O2 (stereo not drawn) | -125 | i | 83* | -9 | -108 | -3 | -5 | ?
CN(C(=O)COC(=O)c1ccccc1Cc1ccccc1)C1CCS(=O)(=O)C1 (stereo not drawn) | -4 | i | -13 | 2 | -3 | 0 | 14 | 9
COC(=O)[C@@H]1C[C@@]2(O)[C@@H](O)[C@@H](O)[C@@H](O)C[C@H]2N1Cc1ccc(C(F)(F)F)cc1 | -37 | i | 0 | 10 | 2 | 3 | -5 | -1
Cc1ccc(C)c(C2C(C#N)=C(N)Oc3cc(C)oc(=O)c32)c1 (stereo not drawn) | · | i | 0 | 16 | 3 | 9 | · | -2
CCCCNC(=S)N(C)/N=C/c1ccc(OCC(=O)Nc2c(C)cc(C)cc2C)c(OC)c1 | 24 | i | · | -1 | -6 | -18 | · | -6
CN(C)c1cc[n+](CCC(=O)Nc2cccc([N+](=O)[O-])c2N)cc1 | · | i | -17 | -14 | -2 | -1 | -9 | 2
COc1cccc(NC(=O)N2CCC(NC(=O)C(Cc3cccc(C)c3)NC(C)=O)CC2)c1 (stereo not drawn) | 5 | i | 0 | 3 | -1 | 1 | -8 | -10
CCC(=O)N(CCN1CCOCC1)Cc1cc2cc3c(cc2nc1Cl)OCO3 | 3 | · | -3 | -5 | 2 | 7 | · | 8
Cc1cc(-c2n[nH]c(=S)n2/N=C/c2ccccc2[N+](=O)[O-])n[nH]1 | 4 | i | -24 | -9 | 0 | 0 | · | 0
CCC(=O)N1CCN(c2ccccc2NC(=O)COc2ccccc2Cl)CC1 | · | i | · | 12 | -7 | -1 | 0 | 6
Cn1nc(C(F)(F)F)c(C(=O)Nc2ccc(F)cc2F)c1Sc1ccc(Cl)cc1 | -67 | i | 4 | -7 | -7 | -1 | -8 | -12
COc1ccc(-c2noc(-c3ccc4c(c3)OCO4)n2)cc1 | -250 | i | 5 | -6 | 4 | 1 | -9 | -5
Cc1cc(NC(=O)CSc2nc(C)c(C)n2CC(C)C)no1 | -14 | · | -15 | · | -2 | 3 | -5 | ·
O=S1(=O)C=CC(Sc2nc3ccccc3[nH]2)C1 (stereo not drawn) | · | · | -8 | 15 | 2 | 5 | -6 | -1
CC(=O)Nc1ccc(NC(=O)C(=O)N/N=C/c2cccnc2)cc1 | 8 | · | -4 | -9 | 0 | 3 | -20 | -1
O=C(CCC1N=C2c3ccccc3N=C(SCc3cccc(Cl)c3)N2C1=O)NCc1ccco1 (stereo not drawn) | -63 | i | -8 | -7 | 0 | 0 | -15 | -10
Cc1ccc(S(=O)(=O)NCCC(=O)NCc2ccccn2)cc1 | 3 | i | -7 | · | 2 | 4 | · | ·
Cc1ccc(S(=O)(=O)N2CCC(C(=O)NNS(=O)(=O)c3ccc(Cl)cc3)CC2)cc1 | -72 | i | -13 | 0 | 0 | 1 | -6 | -4
Cc1c(NC(=O)C(C)OC(=O)Cc2ccc(F)cc2)c(=O)n(-c2ccccc2)n1C (stereo not drawn) | -7 | i | -6 | · | -4 | 0 | · | ·
CCCC(=O)Nc1nn(CC)c2nc3ccc(C)cc3cc12 | -44 | i | -9 | -8 | 2 | -7 | -8 | -10
(more compounds)
SMILES | HIV Env fusion | Rce1 inhib | CSC inhib | PABP FP inh | MT1-MMP act inh | MT1-MMP act inh RFP | Yeast UUG start | eIF4H inh | others
CC1Cc2ccccc2N1C(=O)c1cccnc1 (stereo not drawn) | 0 | i | 5 | -4 | -4 | 2 | -18 | 0
O=C1C(c2ccc(F)cc2)N(Cc2ccc3c(c2)OCO3)C(=O)CN1C1CCCCC1 (stereo not drawn) | · | i | -12 | 4 | 0 | -4 | 12 | -3
Fc1ccccc1N1CCN(Cc2cccnc2)CC1 | -21 | i | -12 | 16 | 2 | 5 | · | 8
C=C(C)CSc1nnc(-c2ccccc2)n1N | · | i | -6 | -6 | -3 | -3 | · | -12
C#CCOc1c(Cl)cc(/C=C2/C(=O)ON=C2C)cc1OCC | -6 | i | 0 | -8 | 8 | 3 | 10 | 1
COc1ccc(CC(=O)N/N=C/c2ccc(-c3cccc(C(=O)O)c3)o2)cc1OC | -2 | i | 7 | 53* | -5 | 1 | -7 | 81*
Cn1c(CO)c(-c2ccccc2)c2cc([N+](=O)[O-])ccc21 | -252 | i | · | 5 | 4 | -5 | -19 | 2
Cc1c(Cl)c([N+](=O)[O-])nn1CC(=O)NCc1ccc(Cl)cc1 | -7 | i | -8 | 1 | 4 | 0 | -14 | -6
C/C(=N\NC(=O)c1ccncc1)c1ccc(NC(=O)c2ccc(Cl)cc2)cc1 | -51 | i | -5 | -3 | 1 | -1 | -11 | 6
CCC(C)c1c(O)nc(SCC(=O)N2CCCCCC2)[nH]c1=O (stereo not drawn) | -8 | i | -3 | 10 | -1 | 3 | -17 | 9
COc1cc2c(cc1OC)C(C)N(C(=O)Cc1ccc(C(F)(F)F)cc1)CC2 (stereo not drawn) | -16 | i | 1 | 3 | -3 | 0 | -2 | 0

Screening results deposited in PubChem BioAssay by several laboratories.
